Compound activity: PubChem BioAssay, National Center for Advancing Translational Sciences (NCATS)
Six1-Eya2 blk: qHTS Assay for Inhibitors of the Six1/Eya2 Interaction; activity change, % (concentration not given with the values); Homeobox protein SIX1 (Homo sapiens) + Protein phosphatase EYA2 (Homo sapiens), …; AID 651725, 2012; AlphaScreen GST-Six1/His-Eya2 binding, biochemical; hits give low values; control for the full effect not named in the record; actives 0.56% (n = 360,000); in the data active = activity change below about -65%; inconclusive = about -30% to -65%; inactive = above about -30%; also: % is scaled to controls: 0 for no effect and ±100 for the full control effect
Target sequence (O00167 whole entry, looked up): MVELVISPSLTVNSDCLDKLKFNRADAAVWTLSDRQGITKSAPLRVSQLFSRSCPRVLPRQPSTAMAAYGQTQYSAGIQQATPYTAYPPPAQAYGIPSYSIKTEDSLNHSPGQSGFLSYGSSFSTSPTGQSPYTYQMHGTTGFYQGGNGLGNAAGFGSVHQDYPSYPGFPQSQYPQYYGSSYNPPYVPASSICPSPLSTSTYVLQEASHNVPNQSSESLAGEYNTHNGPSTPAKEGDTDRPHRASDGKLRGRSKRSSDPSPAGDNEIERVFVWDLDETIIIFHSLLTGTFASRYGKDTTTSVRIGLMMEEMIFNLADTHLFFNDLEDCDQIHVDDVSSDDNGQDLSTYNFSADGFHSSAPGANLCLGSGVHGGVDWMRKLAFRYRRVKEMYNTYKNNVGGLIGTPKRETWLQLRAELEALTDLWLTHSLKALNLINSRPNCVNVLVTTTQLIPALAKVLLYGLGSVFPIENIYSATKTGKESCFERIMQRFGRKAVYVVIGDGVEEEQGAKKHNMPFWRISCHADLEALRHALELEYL
Target sequence (Q15475 whole entry, looked up): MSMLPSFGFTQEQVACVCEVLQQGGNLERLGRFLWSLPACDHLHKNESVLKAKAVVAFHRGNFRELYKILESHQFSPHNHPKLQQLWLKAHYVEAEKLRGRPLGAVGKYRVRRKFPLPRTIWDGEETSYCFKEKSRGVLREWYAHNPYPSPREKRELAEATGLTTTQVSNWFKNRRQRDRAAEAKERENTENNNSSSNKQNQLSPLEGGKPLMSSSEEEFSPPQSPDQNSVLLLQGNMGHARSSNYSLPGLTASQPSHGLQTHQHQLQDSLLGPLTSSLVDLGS
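GST-Six1 + His-Eya2 (5X stock: 250/500 nM); Tris pH 8.0, 300 mM NaCl, 0.05% BSA, 0.02% Tween 20; GSH donor/Ni acceptor beads; 1 h 37 °C dark; AlphaScreen readout.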
TRPML1 agonist: qHTS for Agonists of the Human Mucolipin Transient Receptor Potential 1 (TRPML1); actives 0.12% (n = 410,000); TRPML1-expressing cells, Ca2+ dye fluorescence, FDSS; host cell line not named in the record; reference of the full effect not given here; AID 624414, 2012; activation, % (test concentration not listed); Mucolipin-1 (Homo sapiens), Q9GZU1; in the data active = activation above about 50%; inconclusive = about 30% to 50%; inactive = below about 30%; also: 0% is about no effect; the text of the record puts the active cut at 80%
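Tetracycline-induced TRPML1-DL cells are seeded and incubated overnight before loading with a no-wash Ca2+ dye and quencher. Agonist activity is taken from the 110 s fluorescence read following compound pin-transfer on an FDSS, before EC80 54-4 challenge.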
D2 ag: Beta-Arrestin HTS for Positive Allosteric Modulators of the Human D2 Dopamine Receptor: Agonists; D(2) dopamine receptor (Homo sapiens), P14416; DiscoveRx PathHunter D2 beta-arrestin, luminescence, 90 min; 100% = 57 uM dopamine signal; activation, % (no concentration beside the values); actives 0.084% (n = 360,000); in the data active = activation above about 40%; inconclusive = about 15% to 40%; inactive = below about 15%; also: compound concentration not given in the record; the text of the record calls up to 30% inactive
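Agonist mode: compounds alone added to overnight-plated D2 PathHunter cells for 90 min at 37 C, with 57 uM final dopamine (EC100) defining full response. Beta-arrestin recruitment detected by chemiluminescent reagent, read after 1 h at ambient temperature.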
D2 potentiator: Beta-Arrestin HTS for Positive Allosteric Modulators of the Human D2 Dopamine Receptor: Potentiators; DiscoveRx D2 beta-arrestin cells, luminescence, 90 min; 100% = 57 uM dopamine signal; potentiation, % (no concentration beside the values); actives 0.23% (n = 360,000); AID 624464, 2012; active = potentiation of 50% or more; inconclusive = 30% to 50%; inactive = 30% or less;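 also: compound concentration not given in the record; tested on top of an EC20 dose of dopamine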
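PathHunter beta-arrestin assay in DiscoveRx D2 cells. Compounds were added with an EC20 of dopamine (50 nM final) for 90 min at 37 deg C. Luminescence was read 1 h after detection reagent, with 57 uM dopamine as the EC100 control.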
PINK1 expr mod: A Quantitative High throughput Screen to Identify Chemical Modulators of PINK1 Expression. PINK1 immunofluorescence, high-content cytometry, 24 h. Potency, µM (top dose mostly 76.6 µM), inactives show at the top dose activation (PINK1 increase), usual class: activators. actives 0.2% (n = 410,000); active = well fitted activation curve with a large enough effect; inconclusive = small, poorly fitted or top-dose-only effect; inactive = flat fitted curve, though single readings scatter; cell line not stated here;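 also: potency is read from the fitted curve at half-maximal effect; % of control where 0% means no effect; nearly all actives have a fitted effect of over 65% in size; a mitochondrial uncoupler was the plate control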
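Decision-based qHTS: stable cells, 24 h exposure to five compound concentrations, CCCP as control. Fixed cells stained for PINK1 plus nuclear, mitochondrial and cell markers, cytometer read.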
TRPML1 inh: qHTS for Inhibitors of the Human Mucolipin Transient Receptor Potential 1 (TRPML1); activity change, negative = inhibition, % (test concentration not listed); Mucolipin-1 (Homo sapiens), Q9GZU1; TRPML1-inducible cells, Ca2+ dye fluorescence, FDSS; hits give low values; inhibition of EC80 agonist-evoked calcium signal; actives 0.02% (n = 390,000); in the data active means activity change below about -50%; inconclusive means about -30% to -50%; inactive means above about -30%;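 also: stimulus is agonist 54-4 at its EC80 concentration; % is scaled to controls: 0 for no effect and ±100 for the full control effect; compound concentration not given in the record; the text of the record puts the active cut at -80%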
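Calcium fluorescence in TRPML1-DL cells induced overnight with Tet: a 110 s read after compound pin addition, then a 110 s antagonist read after challenge with 54-4 at 4 uM final (EC80).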
* = called active by the depositor; ? = inconclusive; . = no result given; [ ] = dose if it differs, or a comment.

SMILES | Six1-Eya2 blk | TRPML1 agonist | D2 ag | D2 potentiator | PINK1 expr mod | TRPML1 inh
OCc1ccc(N=Nc2ccccc2)cc1 | 0.0 | 0.9 | -2.5 | -3.2 | 1.6% | 0.5
CCCCc1nc2ccccc2c(NC(=O)CN(CC)CC)c1CCC | -1.9 | -0.4 | -1.9 | 4.8 | -1.8% | 4.1
CC1=C(C(=O)Nc2cc(C(=O)NCCCOC(C)C)ccc2C)SCCO1 | 4.1 | -1.3 | -2.9 | -5.4 | 0.2% | 17.5
CC(C)OC(=O)CN1C(=O)C(C)(C)Oc2ccc(C(=O)NC(C)(C)C)cc21 | -1.7 | -0.3 | -1.8 | -11.5 | -0.7% | -3.3
CCCCN1C(=O)C(CC(=O)NC(c2ccccc2)c2ccccc2)CC(C(=O)N(C)C)=C1C (stereo not given) | -0.2 | -0.8 | -6.9 | 5.8 | 0.2% | -1.3
O=C(c1ccc2snnc2c1)N1CCCC1 | -3.5 | -0.4 | -3.6 | -1.5 | 0.5% | -12.0
N#Cc1c(-c2ccccc2)ccnc1Oc1ccccc1 | 19.9 | -0.1 | -2.6 | 6.8 | -1.0% | 41.0
CSc1nsc(NC(=O)OCc2ccc(Cl)cc2)n1 | -2.7 | 1.0 | -0.9 | -15.9 | ? | -3.0
CN(C)c1cc[n+](CC(=O)Nc2ccc(Oc3ccccc3)cc2)cc1 | -1.1 | 1.6 | 1.8 | -14.4 | 1.9% | 24.2
O=C1N[C@@H](c2ccccc2)COC(=O)[C@@H](Cc2ccc(F)cc2)C/C=C\C[C@H]1CC(=O)N(CCO)Cc1ccccc1 | 5.0 | 5.2 | -6.6 | 4.5 | 0.6% | 28.8
CCn1c(CNC(=O)c2cccnc2)cc2ccccc21 | -1.7 | -0.9 | 0.8 | -11.7 | 0.5% | -0.5
O=C(Cc1ccc(-c2ccccc2)cc1)NCCS(=O)(=O)N1CCN(c2ccc(F)cc2)CC1 | . | 2.0 | . | . | 0.5% | 1.7
Cc1ccc(Nc2c(-c3ccccn3)nc3ccc(C)cn23)cc1 | -93.0* | 1.9 | -11.3 | -34.0 | ? | -3.1
Brc1ccc2oc(-c3ccn[nH]3)cc2c1 | 13.2 | 1.4 | -3.2 | -7.8 | -0.3% | 22.3
O=C(COC(=O)Cn1cnc2ccccc21)Nc1ccc(F)c(F)c1 | 0.1 | 0.2 | -2.3 | -7.7 | -0.7% | -16.9
COc1ccccc1N1CCN(S(=O)(=O)CCNC(=O)CCc2ccccc2)CC1 | -4.5 | -1.0 | 2.3 | -17.9 | 0.8% | 5.6
O=C(Nc1ccc(OC(F)(F)F)cc1)c1ccc2nccnc2c1 | -6.1 | -0.3 | 6.5 | -0.5 | 1.2% | ?
CN(C)c1nc(N(C)C)nc(N2CCCCC2)n1 | 7.0 | -0.1 | -1.0 | 6.3 | . | 12.0
Cc1ccc(F)c(S(=O)(=O)NC(=O)C2(C)CCN2C(=O)c2ccc(C3CCCCC3)cc2)c1 (stereo not given) | 27.6 | -1.0 | -2.4 | -2.1 | -0.4% | .
Cn1cc(S(=O)(=O)N2CCCC2)cc1C(=O)Nc1ccc(C(F)(F)F)cc1 | . | 3.5 | . | . | 0.8% | -13.4
C=CCNC(=S)/C(=C(/[O-])c1ccccc1Br)[n+]1ccccc1 | 0.3 | . | 4.2 | -4.6 | -0.4% | .
O=C(COC(=O)COc1cccc(C(F)(F)F)c1)Nc1ccc(N2CCOCC2)cc1 | -6.4 | -0.5 | -0.5 | 9.2 | 0.0% | -8.0
O=C(NCCCO)/C(=C\C=C\c1ccccc1)NC(=O)c1ccccc1Cl | 7.4 | -0.5 | 2.1 | -15.7 | -0.5% | -6.3
COc1ccc(CNC(=O)c2ccc3c(c2)N(C)C(=O)CS3=O)cc1 (stereo not given) | -5.1 | 0.8 | -1.3 | -9.2 | -3.7% | 16.1
O=C1C2CCCCC2C(=O)N1Cc1ccccc1 (stereo not given) | -0.8 | -0.6 | 0.1 | -6.5 | 2.5% | 13.1
CCc1ccc(-c2csc(NC(=O)C3=COCCO3)n2)cc1 | -7.5 | 4.3 | 2.2 | 0.0 | 4.3% | 17.8
COc1cccc(-c2csc(N3CCN(CC(=O)NNC(=O)c4ccco4)CC3)n2)c1 | -7.6 | 0.5 | 4.7 | -13.6 | -2.2% | -2.2
CC(C)CNC(=S)N1CCC(NC(=O)c2ccco2)CC1 | 2.6 | 0.0 | 2.2 | -5.2 | 2.0% | 18.0
COc1ccc(OC(=O)COc2ccc(C)cc2)cc1 | 6.2 | 1.0 | -3.7 | 1.8 | 0.5% | -14.7
Cc1ccc(Nc2nc(N/N=C\c3ccc4c(c3)OCO4)nc(N3CCOCC3)n2)cc1 | -1.7 | 3.3 | -5.4 | -27.6 | 11.3% | 7.0
O=C(COc1ccccc1Cl)NCCNC(=O)c1ccncc1 | -11.1 | -0.3 | -3.1 | -3.1 | -2.6% | -4.6
CC(C)(C)NS(=O)(=O)c1ccc(CCC(=O)Nc2ccc3c(c2)OCO3)cc1 | -2.5 | 0.3 | -0.9 | -7.2 | -0.3%[38.3 µM] | 0.6
Cc1c(C(=O)N(C)Cc2ccc(OC(F)F)cc2)oc2ccccc12 | 16.1 | 2.4 | 0.1 | -1.2 | -0.3% | 11.0
O=C(c1ccc(OC2CCN(Cc3ccccn3)CC2)cc1)N1CCC[C@H]1CO | 1.8 | 0.3 | -2.3 | 19.9 | -3.1% | 2.1
CCn1c(O)c(N=NC(=O)CNC(=O)/C=C/c2ccccc2)c2ccccc21 | -0.9 | -1.2 | -3.9 | -5.5 | -0.7% | 5.2
CCc1ccc([C@@H]2C[C@H]3[C@@H](CN2S(=O)(=O)c2ccc(C)cc2)C(=O)C[C@@H](c2ccc(Cl)cc2)N3S(=O)(=O)c2ccccc2C)cc1 | 0.1 | 1.2 | -8.1 | 4.8 | 1.4% | 11.7
COC(=O)c1ccccc1NC(=O)CSc1nc(=O)cc(N)n1-c1ccccc1 | . | 0.2 | . | . | 2.4% | -17.8
Cc1cccc(C)c1NC(=O)NC1CC2CCC(C1)N2Cc1cccs1 (stereo not given) | 0.0 | 0.8 | -3.0 | -23.4 | 2.1%[38.3 µM] | -2.1
O=C(NC1CC1)c1ccc(CN(c2ccccc2)S(=O)(=O)c2ccccc2)cc1 | -0.8 | 2.2 | -1.4 | -12.8 | -1.1% | 2.3
COc1ccc(CN2c3cc(S(=O)(=O)N4CCOCC4)ccc3N3CCCC32)cc1 (stereo not given) | -1.3 | -0.8 | -1.4 | 1.1 | 2.4% | 12.1
COc1ccc(CN2CCCN(C)CC2)c(OC)c1C | -0.4 | 0.2 | 0.6 | -5.9 | 0.5% | 4.7
O=C(COC(=O)c1ccc(Br)o1)Nc1ccc(F)cc1[N+](=O)[O-] | -18.8 | 0.6 | ? | 6.6 | 1.2% | 8.3
CC(=O)N1CCN(Cc2nc3ccc(Cl)cc3n2CCO)CC1 | 1.5 | 0.5 | -1.3 | -1.6 | 0.8% | 6.8
O=C(NCc1ccccc1)c1ccc(S(=O)(=O)NCc2ccco2)cc1 | -2.2 | 0.5 | 1.7 | -4.5 | -2.4% | 13.7
COc1ccc(NC2(c3ccccc3)OC(=O)c3ccccc32)cc1 (stereo not given) | -5.5 | 1.9 | 11.1 | -12.2 | -0.4% | 23.4
CCOC(=O)c1sc2ccccc2c1S(=O)(=O)N1CCN(c2ccccc2F)CC1 | . | 0.8 | . | . | 0.6% | 5.7
CC(=O)c1ccc(-c2nc3c4ccccc4ccn3c2C(C)=O)o1 | -4.8 | -1.0 | 0.7 | 0.7 | 10.5% | -6.1
CCNS(=O)(=O)c1ccc(CCC(=O)N2CCCC2)cc1 | -0.5 | 0.3 | -3.8 | -10.1 | 1.8% | -8.3
COc1ccccc1N1CCN(C(=O)c2cc3c(=O)n(C)c4ccccc4c3s2)CC1 | . | 0.1 | . | . | 0.3% | 20.9
CCOC(=O)CSc1nc2sc3c(c2c(=O)[nH]1)CC(C)(C)OC3 | -2.2 | 0.0 | -3.0 | -2.4 | 0.0% | 45.1
CN(Cc1cn(Cc2cccc(Cl)c2)nn1)C1CN(Cc2cn(Cc3cccc(Cl)c3)nn2)S(=O)(=O)C1 (stereo not given) | -7.2 | -0.4 | . | . | -0.1% | .
CCOc1ccccc1CNCc1c(C(=O)O)n(Cc2ccc(F)cc2)c2cc(C)ccc12 | . | -0.4 | . | . | -0.5% | -5.7
O=C(Nc1nc([C@@H]2O[C@H](CO)[C@@H](O)[C@H](O)[C@H]2O)cs1)NC(c1ccccc1)c1ccccc1 | -11.4 | 0.1 | -2.0 | 0.2 | 2.5% | .
COc1cccc(C(=O)Nc2nc(-c3ccncc3)cs2)c1 | -5.1 | 0.0 | -3.1 | -5.8 | 0.1% | 0.2
Cc1nc(CC(=O)N2CCN(c3cccc(C)c3C)CC2)cs1 | -1.9 | 0.5 | 1.4 | -2.6 | . | -11.0
Cc1ccc(/C=N/N(C)C2=NS(=O)(=O)c3ccccc32)cc1 | -22.2 | 1.7 | -0.9 | 0.5 | 11.7% | 11.3
CCSc1nc2ccccc2c(=O)n1C1CCOC(C)(C)C1 (stereo not given) | 10.6 | -0.6 | 3.8 | -4.6 | 11.8% | 15.7
CC1CCCN(C(=O)CSc2nnc3ccccn23)C1 (stereo not given) | 1.4 | 0.5 | -3.4 | 0.4 | 0.4% | 21.4
CCCOc1ccccc1C1CC(=O)NC2=C1C(=O)CCC2 (stereo not given) | -5.3 | 1.7 | -2.5 | -7.5 | 20.9% | -2.6
COc1ccc(C(=O)COC(=O)/C=C/c2ccco2)cc1F | 0.9 | -0.4 | 2.9 | 6.8 | 2.0% | 20.5
Further entries
SMILES | Six1-Eya2 blk | TRPML1 agonist | D2 ag | D2 potentiator | PINK1 expr mod | TRPML1 inh
COc1ccc(CNC(=O)c2cnn3c(C(F)F)cc(C)nc23)cc1 | -8.2 | -1.0 | -5.3 | -3.6 | 1.6% | 8.0
C=CCn1c(NCc2ccc3c(c2)OCO3)nc2ccccc21 | 1.5 | 1.3 | -3.8 | -41.3 | -1.1% | 33.0
O=C1C(Nc2ccc(O)cc2)=C/C(=N/S(=O)(=O)c2cccs2)c2ccccc21 | -76.8* | 3.6 | 1.4 | -6.6 | -1.9% | -9.5
Cc1cccc(N2CCN(c3nc4nonc4nc3N3CCSCC3)CC2)n1 | 1.1 | -0.9 | 1.1 | -2.3 | 0.1% | 12.8

Profiles from above. Values in the order: Six1-Eya2 blk | TRPML1 agonist | D2 ag | D2 potentiator | PINK1 expr mod | TRPML1 inh
Results for `COc1ccc(CNC(=O)c2cnn3c(C(F)F)cc(C)nc23)cc1` → -8.2 | -1.0 | -5.3 | -3.6 | 1.6% | 8.0
Results for `Cc1cccc(N2CCN(c3nc4nonc4nc3N3CCSCC3)CC2)n1` → 1.1 | -0.9 | 1.1 | -2.3 | 0.1% | 12.8
